Autofluor counter: flagged as autofluorescent in microsphere protease counterscreen; compound autofluorescence counterscreen, microsphere flow cytometry; active compounds read high; fluorescence intensity (test concentration not listed); actives 3.1% (n = 360,000); AID 624483;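 active = at least 3 SD above the mean of all compounds, about 16000 in these data; inconclusive = too few beads counted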;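 note: 100 nL of 1 mM stock went into each well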
ugtP null kill: compounds lethal to S. aureus RN4220 ugtP deletion mutant | growth inhibition, % (no concentration beside the values) | actives 0.54% (n = 330,000) | OD600 growth, 16 h; some inactives read as strong as hits;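 active = z-score under -3 and OD600 up to 0.15 on both plates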;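 note: plate controls were untreated wells for no effect and antibiotic for full effect; wells of about 80 µL received 100 nL stock; the first replicate is given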
PrP 5UTR inh: inhibition of PrP 5' UTR reporter expression. cell-based PrP 5' UTR mRNA reporter, plate reader. inhibition, % (test concentration not listed). actives 0.35% (n = 340,000);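 active = every replicate at 50% or more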;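 note: 0 = median of the neutral control wells; tested in H4 reporter cells; numbers are from one replicate; inactives centre near -14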
BJeLR viability: kills HRASV12-expressing BJeLR cells; BJeLR (HRASV12) viability, CellTiter-Glo ATP luminescence, 48 h; reference of the scale not given here; inhibition, % (test concentration not listed); actives 0.17% (n = 300,000);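 active = replicate mean above 50%; inconclusive = above 50% but judged a plate artefact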;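 note: 50 nL library stock added to about 25 µL; numbers are from one replicate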
Mtb hypoxia rep: reduces hypoxia-regulated biosensor signal in M. tuberculosis; M. tuberculosis hypoxia-regulated fluorescent reporter, fluorescence; fluorescence inhibition, % (concentration not given with the values); actives 0.1% (n = 300,000);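 active = 35 to 45% if threefold the growth effect, above 45% if 1.5-fold the growth effect; inactive = the rest, general growth blockers included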;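 note: wells of about 50 µL received 100 nL stock; 0% = vehicle wells and 100% = reference inhibitor wells; whole bacteria with a GFP reporter of the hypoxia response; strong numbers were not always called active; many hits fall short of the cut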
Sa RN4220 lethal: S. aureus RN4220 growth inhibition | OD600, 16 h | inhibition, % (test concentration not listed) | actives 0.33% (n = 330,000);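 active = z-score of -3 or lower and OD600 up to 0.18 on both plates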;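 note: plate controls were untreated cells for no effect and reference antibiotic for full effect; stock transfer was 100 nL into about 80 µL; one replicate is shown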
Mtb hypoxia rep growth: also measured in Mtb hypoxia rep; calls as there; growth inhibition, %; measured here: M. tuberculosis growth (absorbance);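 0% = vehicle and 100% = reference antibiotic; read after six days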
* hit, by the source's call; ? = inconclusive; . = not tested or not shown.

Compound	ugtP null kill	BJeLR viability	Mtb hypoxia rep growth	Autofluor counter	Mtb hypoxia rep	PrP 5UTR inh	Sa RN4220 lethal
Cc1ccc[n+](-c2nc([O-])sc2C=O)c1	-1	.	-1	4884	-1	-33	7.0
CCCn1c(N)c(C(=O)COC(=O)CNC(=O)c2ccc(C)c(C)c2)c(=O)n(C)c1=O	1	.	-2	?	-2	-18	4.2
Cc1cccn2c(=O)c(/C=C(\C#N)S(=O)(=O)c3ccccc3)c(N3CCC(C(N)=O)CC3)nc12	2	-11	9	18714*	8	-21	5.2
CCc1ccc(C(=O)Nn2cnc3ccccc3c2=O)cc1	5	2	1	3999	5	-55	-0.6
Cc1nc(SCC(=O)Nc2cccc(Cl)c2)n[nH]1	-11	16	15	3124	11	-10	-14
CC(C)(C)OC(=O)NCCC(=O)Oc1ccc2ccc(=O)oc2c1	.	7	.	2810	.	-8	.
N=c1c2c(ncn1Cc1ccco1)Oc1c(ccc3ccccc13)C2c1ccccc1 (stereo unspecified)	-14	6	7	2357	8	5	-4.8
Cc1ccc(F)c(NC(=O)/C(C#N)=C(\O)c2ccc(C(C)(C)C)cc2)c1	35	1	3	1937	2	-8	44
Cc1nc(NCCc2ccc(F)cc2)c(C#N)c(C)c1[N+](=O)[O-]	4	0	3	2483	-1	-12	6.3
COCCn1c(CN2CCc3ccccc3C2)nc2c1c(=O)n(C)c(=O)n2C	4	8	4	2218	-1	-22	0.1
COc1ccc(N(C)C(=O)c2cn(CC(C)C)c(=O)c3cc(OC)c(OC)cc23)c(OC)c1	9	-8	-14	3158	-6	3	1.4
O=C(CCN1C(=O)/C(=C/c2ccccc2Cl)SC1=S)NC1=NCCS1	87*	-3	-1	4595	0	-21	3.2
Clc1ccc2c(N/N=C/c3cccc(Br)c3)ccnc2c1	.	16	.	7891	.	-24	.
O=c1c2ccccc2c(-c2ccc(O)cc2)nn1-c1cccc(C(F)(F)F)c1	-9	0	5	2171	9	-1	-3.9
O=C(NC1CCCC1)c1cnn2c(C(F)(F)F)cc(-c3ccco3)nc12	28	0	5	20185*	2	-8	0.4
COc1ccc(Cn2c(=S)[nH]c3cc(C(=O)N4CCCCC4)ccc3c2=O)cc1	0	-4	-2	4383	-4	-8	6.3
COc1ccccc1NC(=O)Cn1nc(-c2ccc3c(c2)OCCO3)ccc1=O	4	-6	-1	4296	2	-20	-1.4
C/C(=N\NC(=O)C(N)=O)c1cccc([N+](=O)[O-])c1	.	4	.	2406	.	-23	.
CCOC(=O)N1CCN(C(=S)Nc2cccc(C)c2C)CC1	12	12	4	2342	8	-13	3.1
Cc1ccccc1Nc1n[nH]c(C)c1[N+](=O)[O-]	4	-1	-2	2180	1	-24	10
COc1ccc(-n2cc(-c3ccccc3)[nH]c2=S)c(OC)c1	-3	9	-3	3091	-4	-21	-0.6
Cn1cc(CN2CCc3c([nH]c4ccccc34)C2C(C)(C)C)cn1 (stereo unspecified)	4	-5	-5	1972	5	-5	8.1
O=C(Nc1cccc2ncccc12)C(Cl)(Cl)Cl	-5	0	8	9447	-4	-43	8.9
O=C(Nc1ccccc1F)C1CC1c1ccccc1 (stereo unspecified)	-5	-5	6	2533	3	-16	2.1
O=C1c2ccccc2CSc2c(O)cccc21	4	9	7	.	12	.	4.9
OCCC1CN(Cc2ccccc2O)CCN1CCCc1ccccc1 (stereo unspecified)	3	-1	-4	.	3	2	-0.9
O=C(CSc1nnc(COc2ccc(Cl)cc2Cl)o1)Nc1ccccn1	10	-4	4	4716	8	3	6.1
CCOC(=O)C1(CCc2ccccc2)CCN(Cc2ccc3c(c2)OCCO3)CC1	-5	9	4	4849	-14	-21	-1.8
O=S(=O)(c1ccc2c(c1)OCCO2)N1CCN(c2ncnc3sccc23)CC1	-6	34	-7	4791	-9	-33	-2.3
N#Cc1ccc(C(=O)NCCCSc2ccccc2)cc1	6	-3	16	5796	2	-21	-1.8
O=C(CNS(=O)(=O)c1cccs1)Nc1ccc2c(c1)OCCO2	-8	-12	6	9333	3	-45	-2.1
O=C(c1cnn(C(=O)c2cccc(S(=O)(=O)N3CCOCC3)c2)c1)c1cc(Cl)cc(Cl)c1O	21	-10	6	.	5	.	1.7
Cc1ccccc1CSCCNC(=O)c1ccc(Cl)c(S(=O)(=O)N2CCOCC2)c1	-4	-3	.	4801	.	-23	-2.2
CCC(C)Oc1nc2c(c(=O)n(C)c(=O)n2C)n1C (stereo unspecified)	.	6	.	2787	.	-1	.
Cc1cc(C)c(NC(=O)C2CCCN2CCO)c(C)c1 (stereo unspecified)	1	-1	6	11463	-6	-3	0.0
O=C(CSc1nc(-c2ccco2)cc(C(F)(F)F)n1)NCCCN1CCOCC1	2	-6	2	3134	16	-3	-1.2
CSc1nsc(SCC(=O)Nc2ccc(C(C)=O)cc2)n1	-7	8	11	11118	3	-40	-0.3
COc1ccc(C(=O)N2CCSC2=S)cc1OC	6	3	6	2553	13	-1	2.1
COc1ccc(-c2cnnn2-c2ccc([N+](=O)[O-])cc2)cc1	2	-3	5	5400	17	-10	8.5
O=C(NCCCn1ccnc1)c1ccc2c(c1)OCCO2	0	-5	9	3567	14	-17	2.7
CCOC(=O)CCc1c(C)nc(SCCCn2c(=O)[nH]c3ccccc32)c(C#N)c1C	-6	-7	7	7855	8	-24	13
CC1CCN(S(=O)(=O)c2ccc(C(=O)Nc3ccccc3-c3nc4ccccc4[nH]3)cc2)CC1	-29	0	-4	1910	-5	-16	-3.7
O=C1N=C(N2CCOCC2)CS1	8	-2	-3	7896	8	-22	0.9
CN(C)/C=C/C(=O)c1cnc2sccn2c1=O	-2	3	-3	4614	-19	-44	3.8
Cc1cccc(-n2ncc3c(N4CCC(C)CC4)ncnc32)c1	12	-5	18	5692	17	-61	0.3
CCC1C(=O)CC(c2ccco2)NC1c1ccco1 (stereo unspecified)	-3	0	4	3076	18	2	-14
COc1cc(CC(=O)Nc2ccc3nc(SC)sc3c2)cc(OC)c1OC	6	4	7	4017	7	-27	2.7
Cc1cccc(NC(=O)N(Cc2cc3cc(C)ccc3[nH]c2=O)CC2COCCO2)c1 (stereo unspecified)	4	16	8	3508	8	-32	4.4
Cn1c(N)c(C(=O)COC(=O)CCc2nc3ccccc3s2)c(=O)n(C)c1=O	-4	10	-1	3943	-4	-13	1.5
CC1=CN2C(=N)/C(=C/c3ccco3)C(=O)N=C2S1	3	2	11	2543	16	-172	4.8
Cc1cc(C(=O)N/N=C/C=C/c2cccc([N+](=O)[O-])c2)n[nH]1	.	-6	.	4447	.	4	.
Cc1ccccc1OCc1nc2ccccc2c(=O)n1/N=C/c1cn[nH]c1-c1ccc(Br)cc1	.	-5	.	1918	.	9	.
S=C(NC1CCCCC1)N1CCOCCOCCN(C(=S)NC2CCCCC2)CCOCCOCC1	-16	7	-9	.	-9	.	-1.6
Cc1ccc(S(=O)(=O)CCC(=O)O)cc1C	0	-16	0	15762	2	19	0.9
Cc1ccc(C)c(N2N=C(C(=O)NCCN3C(=O)S/C(=C\c4cccnc4)C3=O)CCC2=O)c1	-2	7	3	?	3	-17	0.7
OCC1(CCc2ccccc2)CCCN(C/C=C/c2ccccc2)C1 (stereo unspecified)	7	-14	9	4942	15	-59	2.3
Cc1ccc2cc(CN(CCN3CCCC3)C(=O)Nc3ccc(F)cc3)c(=O)[nH]c2c1C	6	2	1	7573	6	-17	3.9
CC(Oc1ccccc1)C(=O)Nc1ccc(S(=O)(=O)N2CCOCC2)cc1 (stereo unspecified)	7	0	2	7140	-4	-37	0.3
Cc1nn(-c2ccc(C(=O)O)cc2)c(C)c1Oc1ccccc1O	-4	-11	14	8336	6	-28	3.9
COc1cccc(NS(=O)(=O)c2ccc3c(c2)CC(=O)N3)c1	-3	.	9	4223	-5	-8	-1.0

Next part:
Compound	ugtP null kill	BJeLR viability	Mtb hypoxia rep growth	Autofluor counter	Mtb hypoxia rep	PrP 5UTR inh	Sa RN4220 lethal
COc1cccc(N2CCN(CC(=O)NC(=O)NCc3ccco3)CC2)c1	-2	-6	-1	3346	-1	-29	4.6
Cc1ccc(OCC(=O)Nc2ccc3c(c2)nc(CCN2CCCCC2)n3C)cc1	-3	-3	-1	5655	-13	9	-1.7
O=C(N/N=C/c1ccc(OC(F)F)cc1OC(F)F)c1cccc(S(=O)(=O)N2CCOCC2)c1	.	-8	.	3404	.	-11	.
CCOC(=O)N1CCN(C(=O)CSc2nnc(-c3cc(OC)ccc3OC)o2)CC1	6	.	.	4541	.	-14	-7.3
COc1cccc(N/C(N)=N/c2nc(C)cc(=O)[nH]2)c1	-3	-2	-2	3416	2	-13	3.4
CC(=NNS(=O)(=O)c1cccc([N+](=O)[O-])c1)c1ccncc1	8	.	2	.	6	.	7.6
O=C(NN1CCOCC1)c1cc(S(=O)(=O)Nc2cccc(C(F)(F)F)c2)ccc1Cl	0	7	4	2276	10	-13	5.4
COc1ccc(N2CCOCC2)c(NC(=O)COc2cccc(C)c2C)c1	4	7	12	6453	9	-14	3.3
COC(=O)N/N=C/c1cn(Cc2ccc(Cl)cc2Cl)c2ccccc12	.	0	.	2564	.	-28	.
COc1ccc(S(=O)(=O)N2CCOCC2)cc1NC(=O)CN1CCCc2ccccc21	2	.	6	4529	1	-23	2.0
O=C(NCCC1CCCCN1S(=O)(=O)c1cccs1)C(=O)NCc1ccccc1 (stereo unspecified)	.	-6	.	6703	.	-18	.
COC(=O)[C@]1(CC(C)C)N[C@H](c2ccc(-c3ccc4c(c3)OCO4)cc2)[C@@H]2C(=O)N(C)C(=O)[C@@H]21	.	-2	.	3351	.	0	.
NS(=O)(=O)c1cc(C(=O)OCCNC(=O)c2ccccc2)c(Cl)cc1Cl	-2	-12	5	4293	1	-23	14
O=C(NCc1ccco1)c1ccc(NS(=O)(=O)c2cccc(F)c2)cc1	15	3	-8	.	-5	-18	2.3
Cc1ccc(OC(C)C(=O)O)cc1C (stereo unspecified)	0	1	9	4507	7	-4	6.3
COc1cccc(C(=O)Nc2cc(S(=O)(=O)N3CCCCC3)ccc2OC)c1	-57	-4	5	4540	15	-12	7.6
CC(C)CNC(=O)COC(=O)c1ccccc1OCC(=O)Nc1ccc(Br)cc1	1	-7	4	1987	5	4	3.7
O=C(c1ccc(Br)o1)N(Cc1ccccc1)Cc1ccccc1	2	9	7	3900	4	-22	4.3

Part of the list above, with values under each structure.
Every second line gives: ugtP null kill	BJeLR viability	Mtb hypoxia rep growth	Autofluor counter	Mtb hypoxia rep	PrP 5UTR inh	Sa RN4220 lethal
O=C(NCc1ccco1)c1ccc(NS(=O)(=O)c2cccc(F)c2)cc1
 : 15	3	-8	.	-5	-18	2.3
O=C(NN1CCOCC1)c1cc(S(=O)(=O)Nc2cccc(C(F)(F)F)c2)ccc1Cl
 : 0	7	4	2276	10	-13	5.4

High-throughput results from PubChem BioAssay.
